GLA inh pH 4.5: inhibitors of human alpha-galactosidase A at pH 4.5; P06280; purified enzyme, 4-MU-alpha-Gal fluorescence, pH 4.5; activity change, negative = inhibition, % at 105 µM; 230,000 tested, under 10 active; AID 1467; inconclusive = small, poorly fitted or top-dose-only inhibition, or a rising curve; inactive = flat fitted curve, though single readings scatter; no compound was filed as active;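 note: 0% = full activity with enzyme and -100% = basal without enzyme; dose as in the result columns while the protocol names 77 µM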
Target sequence (P06280 whole entry, looked up): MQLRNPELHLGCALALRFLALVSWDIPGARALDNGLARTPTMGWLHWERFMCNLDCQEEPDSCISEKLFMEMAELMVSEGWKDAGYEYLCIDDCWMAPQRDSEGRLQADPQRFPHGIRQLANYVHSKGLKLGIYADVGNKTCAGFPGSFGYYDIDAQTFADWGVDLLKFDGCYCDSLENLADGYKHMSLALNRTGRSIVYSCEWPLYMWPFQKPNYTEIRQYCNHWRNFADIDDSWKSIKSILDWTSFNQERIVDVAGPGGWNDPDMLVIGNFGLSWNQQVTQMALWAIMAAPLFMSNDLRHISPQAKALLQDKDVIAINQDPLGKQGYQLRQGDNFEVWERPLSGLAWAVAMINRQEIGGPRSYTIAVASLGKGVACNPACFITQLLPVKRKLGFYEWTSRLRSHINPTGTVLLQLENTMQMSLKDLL
Rango release inh: inhibition of RanGTP-driven Rango-importin beta dissociation. O95149+P62826. Biochemical FRET Rango-importin beta, RanGTP-induced dissociation. Potency, µM (series often up to 46.1 µM), for inactives: at the highest dose activity change, negative = inhibition. hit rate 0.071% among 340,000. AID 540253; active means falling FRET ratio curve, often poorly fitted, with flat reads before Ran was added; inconclusive means other falling curves, or compound fluorescence or quenching; inactive means flat or rising ratio curve;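 note: potency is the fitted concentration of half-maximal effect; % of control where 0% means no effect; nearly all actives have a fitted effect of over 45% in size; -100% = wells without RanGTP and RCC1; the record marks most hits as doubtful in a second field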
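Quantitative HTS using a FRET biosensor: 0.1 uM Rango, 0.25 uM importin beta, 0.6 uM Ran, 2 mM GTP, 0.2 uM RCC1 final, PBS with DTT, Tween-20 and BSA. Post-read taken 45 min after Ran addition.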
miR-21 reporter: raises the signal of a miR-21 reporter. HeLa miR-21 FLuc reporter, luciferase, 48 h. Potency, µM (series often up to 38.3 µM), without a hit: at the top dose reporter change, positive = more light. 340,000 tested, under 10 active. AID 2288; active = well fitted rising curve with a large enough effect; inconclusive = small, poorly fitted or top-dose-only effect; inactive = no such curve, though single readings can be large or run the other way;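 note: % of control where 0% means no effect; miR-21 action dims this reporter so a rising signal means less miR-21 action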
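Luminescence from a firefly luciferase reporter carrying a miR-21 binding site downstream, stably expressed under a CMV promoter in HeLa cells that make miR-21 endogenously, reports miRNA modulation after 48 h compound exposure up to approximately 40uM final.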
Rango complex inh: prevents formation of the Rango-importin beta complex; Rango CFP/YFP FRET sensor + importin beta, 45 min; hit rate 0.031% among 340,000; Potency, µM (titrated, usually from 92.2 µM), without a hit: at the highest dose inhibition of complex formation; Q14974; active = rising FRET ratio curve, often small or poorly fitted; inconclusive = mostly compound fluorescence or quenching in the first reads; inactive = flat curves in all reads;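 note: potency is the fitted concentration of half-maximal effect; 0% = DMSO wells and 100% = buffer wells lacking importin beta; nearly all actives have a fitted effect of over 15% in size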
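Inhibition scored from the CFP 486 nm/YFP 530 nm FRET ratio 45 min after adding 0.125 microM importin beta to 50 nM Rango biosensor preincubated 5 min with compound (room temperature, PBS with DTT, Tween-20, BSA). No-importin wells as positive control.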
Active calls of the source: *; ? = inconclusive; . = not tested or not shown; & = joins results of further samples; [ ] = another dose, or the depositor's remark. The list is partial; rates above refer to the full screens.

SMILES | GLA inh pH 4.5 | Rango release inh | miR-21 reporter | Rango complex inh
O=C(N/C(=C/c1ccccc1)C(=O)N1CCOCC1)c1ccc([N+](=O)[O-])cc1 | 11[21.1 µM] | 2% | 1% | -2.9%
Clc1ccccc1Sc1ccc(-c2ccccn2)s1 | -11 | 13% | -13% | -3.5%
CCN1C(=O)CC(NCc2ccc(S(N)(=O)=O)cc2)C1=O (stereo unspecified) | 0 | -1% | 0% | -0.7%
COc1ccccc1NC(=O)C1CCCN(c2ncnc3c2nc2n3CCCCC2)C1 (stereo unspecified) | . | -8% | 1% | 2.9%
Cc1cc(N(C)/N=C/c2ccccc2)nc(-c2ccccc2O)n1 | -2 | 21% | -2% | -1.0%
CCCCc1nnc(NC(=O)CS(=O)(=O)Cc2ccccc2)s1 | 0 | -1% | -5% | 2.3%
COc1ccccc1N1CCN(C2CCC(C)CC2)CC1 (stereo unspecified) | . | -1% | 0% | -0.2%
COc1ccc(S(=O)(=O)N(C)C[C@H]2Oc3c(cccc3N(C)C)C(=O)N([C@H](C)CO)C[C@@H]2C)cc1 | . | -9% | . | -1.9%
S=C(NCCc1ccccc1)Nc1nccs1 | . | 23% | . | 2.8%
O=C(NC(=S)Nc1ccc(Br)cc1F)C1CCCCC1 | . | 3% | . | 1.0%
O=C(NN/C(=N/S(=O)(=O)c1ccc(Cl)cc1)c1ccccc1)c1ccc(O)cc1 | 5 | 13% | -57% | 7.9%
CCc1ccc(/C=C2\SC(=S)N(CCC(=O)Nc3cc(C)on3)C2=O)cc1 | 4 | 1% | 14% | 3.6%
Cc1ccc(/C=c2\s/c(=C(/C#N)C(=O)N3CCCC3)n(Cc3ccco3)c2=O)s1 | -13 | 8.2µM* | -5% | ?
Cc1cc(C)n2nc(S(=O)(=O)NC3CCCCC3)nc2n1 | -1 | 2% | -5% | -0.8%
O=C1CSC(c2cn(-c3ccccc3)nc2-c2cc3ccccc3oc2=O)N1Cc1ccco1 (stereo unspecified) | -15 | -2% | -1% | -1.3%
Cc1ccc(N(Cc2ccccc2F)S(C)(=O)=O)c(C)c1 | -7 | 6% | 0% | 0.6%
CN(C)CCN(C(=O)c1ccc2c(c1)OCCO2)c1nc2c(Cl)cccc2s1 | . | 10% | 0% | -0.5%
O=C(c1cc(S(=O)(=O)N2CCCCC2)ccc1F)N1CCCCC1 | -10 | 0% | -9% | 4.7%
CNC(=O)c1cc(NC(=O)CCn2nc(-c3ccc(C)cc3)c3ccccc3c2=O)ccc1OC | 1 | 6% | -3% | 0.6%
Cc1nc2ccccc2n1Cc1ccccc1 | . | 1% | 2% | -1.3%
COc1ccc(CN(C(=O)c2oc3ccccc3c2C)C2CCS(=O)(=O)C2)cc1OC (stereo unspecified) | -1 | 4% | -8% | -7.2%
NC1=NC(=O)/C(=C/c2ccc(Br)cc2)S1 | . | 11% | -4% | 0.0%
O=C(O)CCc1nc(-c2ccccc2)no1 | 6 | -9% | -1% | 0.3%
CC(C)CC(=O)Nc1nnc(S(=O)(=O)N(C)c2ccc(Cl)cc2)s1 | . | 14% | 7%&4% | 1.7%
O=C(Nc1nc(-c2ccc(F)cc2)cs1)c1cccc(N2C(=O)CCC2=O)c1 | . | -15% | 2% | -1.1%
CC(=O)c1cnc2c(-c3ccc(Cl)cc3)c(C)nn2c1C | -16 | 7% | -14% | -6.2%
O=C(CSCc1cccs1)N1CCCC1 | -3 | -4% | -37% | 1.6%
Oc1ccc(-n2nnnc2SCc2ccccc2Br)cc1 | . | 2% | 7% | 5.5%
CCN(CC)C(=O)CSc1nc2cc3c(cc2c(=O)n1Cc1ccc(OC)cc1)OCO3 | 12 | -5% | -2% | 0.6%
Cc1cc(C)c2c(n1)SCC(=O)N2CC(=O)Nc1ccc(Br)c(C)c1 | . | -1% | -12% | -2.4%
C=CCn1cnc2c(c1=O)c1nc3ccccc3nc1n2/N=C/c1cccc(OC)c1 | -2 | -1% | 3% | 0.6%
COc1ccc(NC(=O)c2ccc(-n3cncn3)c([N+](=O)[O-])c2)cc1 | 1 | -10% | -2% | ?
Cc1ccc(CN2C(=O)C(CC(C)C)Nc3ncnc(N4CCN(c5ccccn5)CC4)c32)cc1 (stereo unspecified) | . | 18% | . | -2.2%
Cc1ccccc1N=C(NOCc1ccc(Cl)cc1Cl)c1nonc1N | -15 | -6% | 20% | -0.5%
O=C(O)CSc1nnc(-c2cccc(S(=O)(=O)N3CCOCC3)c2)n1-c1cccc(Cl)c1 | 5 | -10% | 0% | 0.4%
COc1ccc(S(=O)(=O)Nc2c(C(=O)O)[nH]c3ccc(OC)cc23)cc1 | . | -5% | 1% | -1.8%
Cc1ccc(-n2nnnc2SCC(=O)NC(C(=O)O)(c2ccccc2)c2ccccc2)cc1C | -10 | -16% | -3% | -0.2%
Cc1ccc2nc(NCc3ccccc3)c(C#N)cc2c1 | 3 | ? | -28% | ?
O=C(O)c1ccc(N2CCOCC2)c(N2C(=O)C3C4C=CC(C4)C3C2=O)c1 (stereo unspecified) | 13 | -7% | 0% | 4.1%
Cc1ccccc1CN1CCN(CC(=O)NC(C)c2ccccc2)CC1 (stereo unspecified) | . | 40% | 0% | ?

2 records picked at random from the list so far:
SMILES | GLA inh pH 4.5 | Rango release inh | miR-21 reporter | Rango complex inh
CCN1C(=O)CC(NCc2ccc(S(N)(=O)=O)cc2)C1=O (stereo unspecified) | 0 | -1% | 0% | -0.7%
S=C(NCCc1ccccc1)Nc1nccs1 | . | 23% | . | 2.8%

The list goes on:
SMILES | GLA inh pH 4.5 | Rango release inh | miR-21 reporter | Rango complex inh
O=C(CC1C(=O)N(Cc2ccccc2)C(=S)N1CCN1CCOCC1)Nc1ccc(F)cc1 (stereo unspecified) | 2 | 26% | 8% | -2.7%
O=C(Nc1ccccc1C(=O)O)c1ccc(NC(=O)C2CCCCC2)cc1 | . | -2% | -3% | -0.9%
O=C(COC(=O)c1cccnc1Cl)NCCC1=CCCCC1 | -24 | -6% | 1% | ?
CC1(c2ccccc2)CC2CC(c3ccccc3)N1O2 (stereo unspecified) | 1 | 11% | -2% | 0.0%
COc1ccccc1CNC(=O)C1CC2Cn3c(nc4cc(Cl)c(Cl)cc43)C2N1C (stereo unspecified) | . | 13% | . | 0.7%
CC1CC(C)CN(C(=O)COC(=O)/C=C/c2ccco2)C1 (stereo unspecified) | . | 2% | . | -2.0%
CS(=O)(=O)c1ccc(NC(=O)c2cccc(-n3cnnn3)c2)cc1 | . | 8% | . | -4.4%
CCOC(=O)c1ccc(N2C(=O)c3cccc4c(C(=O)O)ccc(c34)C2=O)cc1 | . | 7% | 0% | 2.8%
COc1cc(OC)c(NC(=S)NCc2ccccc2)cc1Cl | -15 | 2% | -1% | 0.3%
CN(C)c1ccc(C(CNC(=O)c2ccc(C#N)cc2)c2c[nH]c3ccccc23)cc1 (stereo unspecified) | -22 | -14% | 2% | -4.2%
C=CCNc1nc2c(c(=O)n(C)c(=O)n2C)n1CC(=C)C | 5 | 11% | -2% | 2.6%
O=C(NC1CCCC1)C(c1ccccn1)N(C(=O)c1csnn1)c1ccccc1Cl (stereo unspecified) | . | 11% | 0% | 1.5%
CC(=O)N(C1=C(N)C(=O)c2ccccc2C1=O)C(C)C | -8 | 20% | 15% | 1.6%
Cc1nn(CCCC(=O)NCc2ccccc2)c(=O)c2nccn12 | . | 0% | 0% | -3.2%
Cc1cc(NS(=O)(=O)c2ccc(NC(=O)C3CCCCC3)cc2)no1 | . | 23% | -5% | 2.0%
O=C(NCC1CC1)c1onc(CSc2ccccc2)c1C(=O)NCC1CC1 | . | -6% | . | 0.9%
CC(Oc1ccc(F)cc1)C(=O)NN (stereo unspecified) | 2 | 6% | 5% | 0.3%
CC1(CCOCc2ccccc2)NC(=O)NC1=O (stereo unspecified) | . | -1% | . | -0.9%
O=C(CN1CCCC1)N/N=C/c1ccc(-c2cccc(Cl)c2)o1 | -27 | -13% | -22% | 2.1%
O=C1CN(C(=O)COc2ccccc2F)c2ccccc2N1 | -5 | 5% | -4% | -1.4%
Cn1cnc([N+](=O)[O-])c1Nc1ccc(O)cc1 | -8 | 18% | -11% | 2.4%
C=CCn1cc(C(=O)OCC)c(=O)c2ccc(F)cc21 | 6 | -14% | 2% | 0.0%
COc1ccc(S(=O)(=O)Nc2ccccc2C(=O)NC2CC2)cc1NC(C)=O | . | -6% | . | -0.6%
CSCCC(NS(=O)(=O)c1ccc(Cl)cc1)C(=O)OCC(=O)N(C(C)C)C(C)C (stereo unspecified) | 4 | -10% | 0% | 1.3%
c1ccc(-c2ccc(-c3nc(-c4ccncc4)no3)cc2)cc1 | 3 | 0% | -47% | -2.1%
CC(=O)NC(c1ccccc1)c1c(O)ccc2ccccc12 (stereo unspecified) | 8 | -7% | -1% | -0.2%
CC1CCN(C(=O)C2CCN(S(=O)(=O)c3cccnc3)CC2)CC1 | 1 | -23% | 3% | -2.1%
CCc1c(C)sc(NC(=O)c2cccs2)c1C(=O)OC(C)C | 1 | -10% | 0% | -3.2%
COc1ccc2c(c1)C=C(C(=O)OCc1cccnc1)CO2 | -1 | ? | 1% | ?
CC(=O)Nc1ccc(OS(=O)(=O)c2ccc(Cl)cc2)cc1 | . | -18% | -25% | 3.3%
Cc1cccnc1Nc1nc(-c2ccc(O)c(O)c2)cs1 | 0 | 7% | -79% | 2.9%
O=C(NN=Cc1ccccc1O)c1cccc([N+](=O)[O-])c1 | . | -1% | . | -2.8%
O=C(CCc1ccccc1)NNC(=O)COc1ccc(Cl)cc1 | . | -23% | 1% | -6.5%

Molecules shown so far that have an aryl methoxy group, in the order listed:
SMILES | GLA inh pH 4.5 | Rango release inh | miR-21 reporter | Rango complex inh
COc1ccccc1NC(=O)C1CCCN(c2ncnc3c2nc2n3CCCCC2)C1 (stereo unspecified) | . | -8% | 1% | 2.9%
COc1ccccc1N1CCN(C2CCC(C)CC2)CC1 (stereo unspecified) | . | -1% | 0% | -0.2%
COc1ccc(S(=O)(=O)N(C)C[C@H]2Oc3c(cccc3N(C)C)C(=O)N([C@H](C)CO)C[C@@H]2C)cc1 | . | -9% | . | -1.9%
CNC(=O)c1cc(NC(=O)CCn2nc(-c3ccc(C)cc3)c3ccccc3c2=O)ccc1OC | 1 | 6% | -3% | 0.6%
COc1ccc(CN(C(=O)c2oc3ccccc3c2C)C2CCS(=O)(=O)C2)cc1OC (stereo unspecified) | -1 | 4% | -8% | -7.2%
CCN(CC)C(=O)CSc1nc2cc3c(cc2c(=O)n1Cc1ccc(OC)cc1)OCO3 | 12 | -5% | -2% | 0.6%
C=CCn1cnc2c(c1=O)c1nc3ccccc3nc1n2/N=C/c1cccc(OC)c1 | -2 | -1% | 3% | 0.6%
COc1ccc(NC(=O)c2ccc(-n3cncn3)c([N+](=O)[O-])c2)cc1 | 1 | -10% | -2% | ?
COc1ccc(S(=O)(=O)Nc2c(C(=O)O)[nH]c3ccc(OC)cc23)cc1 | . | -5% | 1% | -1.8%
COc1ccccc1CNC(=O)C1CC2Cn3c(nc4cc(Cl)c(Cl)cc43)C2N1C (stereo unspecified) | . | 13% | . | 0.7%
COc1cc(OC)c(NC(=S)NCc2ccccc2)cc1Cl | -15 | 2% | -1% | 0.3%
COc1ccc(S(=O)(=O)Nc2ccccc2C(=O)NC2CC2)cc1NC(C)=O | . | -6% | . | -0.6%
COc1ccc2c(c1)C=C(C(=O)OCc1cccnc1)CO2 | -1 | ? | 1% | ?

Screening results as filed in PubChem BioAssay.
